Screening data (PubChem BioAssay)
miR-21 FLuc: qHTS Assay for Modulators of miRNAs and/orActivators of miR-21; HeLa miR-21 FLuc reporter, luciferase, 48 h; Potency, µM (top dose mostly 38.3 µM), for the others: at the top dose reporter change, positive = more light; 340,000 tested, under 10 active; AID 2288, 2010; active = well fitted rising curve with a large enough effect; inconclusive = small, poorly fitted or top-dose-only effect; inactive = no such curve, though single readings can be large or run the other way;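 also: % of control where 0% means no effect; miR-21 action dims this reporter so a rising signal means less miR-21 action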
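HeLa cells endogenously expressing miR-21, stably carrying CMV-driven firefly luciferase with a downstream miR-21 binding site, 2000 cells/well. Titrations up to approximately 40 uM, 48 hours; luciferase luminescence read.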
Rango-impB inh: qHTS Assay for Inhibitors of Rango (Ran-regulated importin-beta cargo) - Importin beta complex formation. Importin subunit beta-1 (Homo sapiens), Q14974. Rango CFP/YFP FRET sensor + importin beta, 45 min. Potency, µM (series often up to 92.2 µM), for inactives: at the highest dose inhibition of complex formation. hit rate 0.031% among 340,000; active = rising FRET ratio curve, often small or poorly fitted; inconclusive = mostly compound fluorescence or quenching in the first reads; inactive = flat curves in all reads;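 also: potency is read from the fitted curve at half-maximal effect; 0% = DMSO wells and 100% = buffer wells lacking importin beta; nearly all actives have a fitted effect of over 15% in size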
Target sequence (Q14974 whole entry, looked up): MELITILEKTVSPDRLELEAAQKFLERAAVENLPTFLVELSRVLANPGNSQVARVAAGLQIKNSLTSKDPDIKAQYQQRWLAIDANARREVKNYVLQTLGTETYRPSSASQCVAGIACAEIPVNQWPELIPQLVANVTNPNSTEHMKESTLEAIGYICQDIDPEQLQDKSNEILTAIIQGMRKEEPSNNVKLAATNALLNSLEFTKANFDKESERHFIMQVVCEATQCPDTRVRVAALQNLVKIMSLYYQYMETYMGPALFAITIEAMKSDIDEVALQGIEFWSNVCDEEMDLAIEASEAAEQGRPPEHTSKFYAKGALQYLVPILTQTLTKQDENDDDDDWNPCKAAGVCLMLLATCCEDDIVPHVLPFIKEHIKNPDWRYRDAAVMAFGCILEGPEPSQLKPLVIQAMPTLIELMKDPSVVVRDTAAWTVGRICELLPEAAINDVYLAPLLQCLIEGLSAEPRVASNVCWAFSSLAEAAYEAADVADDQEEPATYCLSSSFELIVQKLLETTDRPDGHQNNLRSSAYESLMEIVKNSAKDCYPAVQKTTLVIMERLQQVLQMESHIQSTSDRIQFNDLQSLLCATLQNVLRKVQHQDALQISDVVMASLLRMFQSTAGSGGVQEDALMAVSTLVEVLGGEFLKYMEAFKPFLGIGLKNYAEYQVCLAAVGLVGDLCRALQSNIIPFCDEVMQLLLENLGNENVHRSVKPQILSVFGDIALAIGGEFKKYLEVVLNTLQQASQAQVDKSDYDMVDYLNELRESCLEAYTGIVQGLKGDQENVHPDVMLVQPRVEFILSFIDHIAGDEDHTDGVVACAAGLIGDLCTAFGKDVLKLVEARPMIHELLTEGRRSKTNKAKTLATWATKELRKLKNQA
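Inhibition scored from the CFP 486 nm/YFP 530 nm FRET ratio 45 min after adding 0.125 microM importin beta to 50 nM Rango biosensor preincubated 5 min with compound (room temperature, PBS with DTT, Tween-20, BSA). No-importin wells as positive control.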
GLA inh pH 4.5: qHTS Assay for Inhibitors of Human alpha-Galactosidase at pH 4.5. Alpha-galactosidase A (Homo sapiens), P06280. purified enzyme, 4-MU-alpha-Gal fluorescence, pH 4.5. activity change, negative = inhibition, % at 105 µM. 230,000 tested, under 10 active. AID 1467, 2008; inconclusive = small, poorly fitted or top-dose-only inhibition, or a rising curve; inactive = flat fitted curve, though single readings scatter; no compound was filed as active;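 also: 0% = full activity with enzyme and -100% = basal without enzyme; dose as in the result columns while the protocol names 77 µM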
Rango dissoc inh: qHTS Assay for Inhibitors of RanGTP induced Rango (Ran-regulated importin-beta cargo) - Importin beta complex dissociation. AID 540253, 2011. Biochemical FRET Rango-importin beta, RanGTP-induced dissociation. hit rate 0.071% among 340,000. Potency, µM (series often up to 46.1 µM), for the others: at the top dose activity change, negative = inhibition; active means falling FRET ratio curve, often poorly fitted, with flat reads before Ran was added; inconclusive means other falling curves, or compound fluorescence or quenching; inactive means flat or rising ratio curve;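 also: potency is read from the fitted curve at half-maximal effect; % of control where 0% means no effect; nearly all actives have a fitted effect of over 45% in size; -100% = wells without RanGTP and RCC1; the record marks most hits as doubtful in a second field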
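Recombinant Rango FRET biosensor (EYFP–snurportin 1 IBB–cerulean CFP10) at 0.1 uM premixed with 0.25 uM importin beta in PBS, 1 mM DTT, 0.02% Tween-20, 0.1% BSA. Compound added 5 min; RanGTP-RCC1 (0.6 uM Ran, 2 mM GTP, 0.2 uM RCC1) then triggers release, read at 45 min.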
Active calls of the source: *; ? = inconclusive; / = no result given; & = joins results of further samples. The list is partial; the hit share may differ from the screen's.

SMILES	miR-21 FLuc	Rango-impB inh	GLA inh pH 4.5	Rango dissoc inh
CC(C)C(NS(=O)(=O)c1ccc2c(c1)C(C)(C)C(=O)N2C)C(=O)NCc1ccccc1Cl (centres undefined)	3%	3.9%	/	10%
Cc1sc2ncnc(N3CCN(c4ncccn4)CC3)c2c1C	15%	6.2%	0	9%
CC1=NCCN1S(=O)(=O)c1cccc([N+](=O)[O-])c1	0%	2.4%	3	0%
Cc1c(CC(=O)NCC(=O)NCC(=O)O)c(=O)oc2cc3oc4c(c3cc12)CCCC4	0%	1.2%	/	-6%
Cc1ccccc1CN(C)C(=O)[C@H](Cc1ccccc1)NC(=O)c1ccco1	/	-0.9%	/	2%
O=C(Nc1ccc2c(c1)OCCO2)c1cnc2n(c1=O)CCS2	-64%	-0.7%	-16	-13%
COc1ccc(NS(=O)(=O)c2ccc3c(c2)N(C(C)=O)CC(C)S3)c(OC)c1 (centres undefined)	13%	0.1%	/	3%
CCN(CC(=O)NCc1ccc(Cl)cc1)C(=O)CCC(=O)c1ccc(F)cc1	/	-2.0%	/	11%
COc1cccc(NC(=O)c2cc3c(=O)n4ccccc4nc3n(CC(C)C)c2=N)c1	0%	-0.7%	3	9%
Clc1cccc(-c2ccc(CNCc3ccccn3)o2)c1	-28%	2.4%	/	-14%
CCOC(=O)C1(Cc2ccccc2)CCCN(CCCn2cccn2)C1 (centres undefined)	-4%	-4.7%	2	-3%
COc1ccc(CCN2C(=O)CC(N3CCC(C(N)=O)CC3)C2=O)cc1OC (centres undefined)	0%	2.9%	5	0%
CC1(C)CC(=O)C2=C(C1)N1CCCCC1CC2=O (centres undefined)	0%	-3.0%	-5	13%
CN(CCO)C(=O)C(c1ccccc1)c1ccccc1	7%	1.6%	0	4%
C[C@@H](C(=O)Nc1nccs1)N1C(=O)C2CC=CCC2C1=O (some centres undefined)	/	-0.3%	/	-9%
O=C(O)C1CCCCN1S(=O)(=O)c1ccc(Cl)s1 (centres undefined)	-4%	-1.1%	-9	0%
Cc1ccc(C)c(N(CC(=O)Nc2ccccc2C(=O)NCc2ccco2)S(=O)(=O)c2ccccc2)c1	19%	-1.9%	-4	15%
Cc1ccc(OCC(=O)NNC(=S)NCc2ccccc2)cc1	-3%	2.9%	12	-3%
COC(=O)c1nnn(CC(=O)Nc2ccc(C)c(F)c2)c1C(=O)OC	0%	0.3%	-7	-6%
Cc1ccc(C(=O)CSc2nnc(-c3ccco3)n2Cc2ccccc2)cc1	-35%	-3.9%	3	28%
Cc1ccc(N(C)S(=O)(=O)c2cccc(C(=O)N3CCN(Cc4ccccc4)CC3)c2)cc1	/	-2.4%	/	12%
Cc1cc(=O)oc2cc(OCC(=O)Nc3ccccc3C(N)=O)c(Cl)cc12	-5%	0.2%	/	12%
COc1cc(OC)cc(C(=O)Nc2cccc3ccccc23)c1	-6%	-4.3%	/	-8%
CCC(C)Sc1nc(C)nc2c1c(=O)n(C)c(=O)n2C (centres undefined)	-5%	-0.7%	-3	-22%
COc1ccccc1-c1nnc(SC(C)C(=O)O)n1-c1ccccc1 (centres undefined)	0%	2.7%	-2	-6%
COc1ccccc1NC(=O)CN(C)S(=O)(=O)c1cc(C)ccc1OC	-7%	-0.4%	1	-8%
COc1cc(C(=O)OCC(=O)Nc2ccccc2C(=O)NC2CC2)c([N+](=O)[O-])cc1OC	/	-7.6%	/	-6%
O=C(Nc1ccc(S(=O)(=O)N2CCOCC2)cc1)c1ccc2ncsc2c1	-37%	-1.4%	1	11%
Cc1cc(C)c2c(=O)[nH]c(SCC(=O)c3ccc(F)c(C)c3)nc2n1	1%	2.5%	2	5%
COc1ccc(C2C(C(=O)c3ccco3)=C(O)C(=O)N2Cc2cccnc2)cc1OC (centres undefined)	-14%	0.2%	-1	-13%
COc1ccccc1-c1noc2ncnc(Nc3cccc(C)c3)c12	0%	0.0%	/	-4%
CCCn1ncc(CN2CCC(n3nccc3NC(=O)CCc3ccccc3)CC2)c1C	-4%	0.1%	/	-2%
CC(=O)Nc1cccc(NC(=O)c2cccc3cccnc23)c1	-22%	-4.8%	/	11%
Cc1c(NC(=O)CN2C(=O)NC(C)(c3ccccc3Cl)C2=O)c(=O)n(-c2ccccc2)n1C (centres undefined)	1%	-1.5%	5	15%
Cc1cc(NC(=O)Cn2c(=O)oc3ccccc32)no1	/	6.1%	/	28%
O=C(CCNC(=O)c1ccc(Br)cc1)OCc1ccccc1Cl	/	2.2%	/	-1%

Complete entries from above. Values in the order: miR-21 FLuc | Rango-impB inh | GLA inh pH 4.5 | Rango dissoc inh
O=C(CCNC(=O)c1ccc(Br)cc1)OCc1ccccc1Cl reads / | 2.2% | / | -1%
COc1ccccc1NC(=O)CN(C)S(=O)(=O)c1cc(C)ccc1OC reads -7% | -0.4% | 1 | -8%
CCCn1ncc(CN2CCC(n3nccc3NC(=O)CCc3ccccc3)CC2)c1C reads -4% | 0.1% | / | -2%
Cc1c(NC(=O)CN2C(=O)NC(C)(c3ccccc3Cl)C2=O)c(=O)n(-c2ccccc2)n1C (centres undefined) reads 1% | -1.5% | 5 | 15%
COc1ccccc1-c1nnc(SC(C)C(=O)O)n1-c1ccccc1 (centres undefined) reads 0% | 2.7% | -2 | -6%

(cont.)
SMILES	miR-21 FLuc	Rango-impB inh	GLA inh pH 4.5	Rango dissoc inh
CC1CCCC(C)N1C(=O)COC(=O)c1ccc(S(=O)(=O)N(C)c2ccccc2)cc1 (centres undefined)	/	8.6%	/	10%
N#C/C(=C\c1cccc(O)c1)C(=O)N1CCCCC1	-11%	-5.6%	/	-1%
Nn1c(COc2ccccc2)nnc1SC(F)F	-4%	-0.3%	-9	-1%
CN1CCN(Cc2c(O)ccc3occ(C(=O)c4ccccc4)c23)CC1	2%	1.7%	-6	-7%
O=C(NCC(O)c1ccccc1)c1cccc(S(=O)(=O)N2CCOCC2)c1 (centres undefined)	-18%	0.8%	3	1%
CC(C)n1nc(C(=O)Nc2ccc(-n3cnnn3)cc2)c2ccccc2c1=O	/	-0.9%	/	-1%
CCOC(=O)C1=C(C)N(CCCC(=O)O)C(=O)NC1c1ccccc1 (centres undefined)	/	0.7%	/	-26%
CC(Cc1ccccc1)C(=O)N1CCN(C)CC1 (centres undefined)	-12%	-0.7%	-4&1	1%
O=C(NC1CCC1)C1CCC(=O)N(Cc2cccc(F)c2)C1 (centres undefined)	-4%	-3.9%	/	-16%
COc1ccccc1CC(=O)NC12CC3CC(CC(C3)C1)C2	-7%	1.9%	/	-10%
Cc1nc2sc3c(O)cc(=O)[nH]c3c2c(C)c1C	0%	1.5%	3	1%
CCn1c(SCC(N)=O)nnc1C(C)C	-2%	2.0%	6	-10%
Cc1ccc(NC(=O)c2cccc(Cl)c2)nc1	-26%	-0.4%	-5	1%
N#CC(Cc1ccc(OC(F)F)cc1)c1nc2ccccc2[nH]1 (centres undefined)	-58%	0.8%	2	-4%
COc1ccc(S(=O)(=O)NCCN2CCOCC2)c(C)c1C	-4%	?	/	36%
CC(=O)CCC(=O)NCCc1ccccc1F	-13%	-2.8%	3	0%
CC(C)(C)NC(=O)CN1C(=O)/C(=C/c2ccccc2)SC1=S	-2%	0.3%	5	16%
O=C(CN1CCN(c2ccccn2)CC1)Nc1ccc(F)cc1	0%	8.4%	4	13%
Cc1ccc(C)c(NS(=O)(=O)c2c(C)nn(C)c2C)c1	2%	3.7%	0	13%
CNC(=O)Nc1ccc(C2SCCS2)cc1	-42%	-0.8%	1	-10%
O=C(C1CCCN(S(=O)(=O)c2cccnc2)C1)N1CCn2c1nc1ccccc12 (centres undefined)	-11%	2.0%	4	6%
CC12CCC(C(=O)N3CCC(Cc4ccccc4)CC3)(C(=O)C1=O)C2(C)C (centres undefined)	3%	-4.6%	0	-13%
N/C(=N\OC(=O)c1cccc(Cn2cc(C(F)(F)F)ccc2=O)c1)c1ccc(Cl)cc1	1%	6.0%	-3	8%
CC(C)[C@H](NC(=O)c1ccccc1)C(=O)OCC(=O)N1CCN(C(=O)c2ccco2)CC1	3%	-3.1%	2	4%
CN(C)CCCn1c2c(c(SCC(=O)Nc3nccs3)nc1=O)CCC2	/	1.1%	/	0%
COc1cccc(NC(=O)C2CCN(S(=O)(=O)c3ccccc3)CC2)c1	6%	0.6%	/	-1%
CCN(CC)S(=O)(=O)c1cccc(NC(=O)c2cncc(Br)c2)c1	9%	-0.2%	-2	-1%
CCOc1ccc(NC2=CC(=O)CCC2)cc1	-11%	?	/	9%
COc1ccc(C)cc1NC(=O)C1CCCCC1C(=O)O (centres undefined)	1%	-0.7%	2	-3%
COc1ccc(C2CC(c3ccc4ccccc4c3)=NN2C(=O)CN2CCC(C(N)=O)CC2)cc1 (centres undefined)	-46%	-0.9%	-5	0%
CC(C)(C)c1ccc(C(=O)Nn2c(CCC(=O)O)ccc2-c2cccs2)cc1	4%	-0.4%	-1	-20%
COC(=O)c1ccc(N2C(=O)C3CC(C)=C(C)CC3C2=O)cc1 (centres undefined)	-4%	2.4%	4	-2%
O=C(CN(C(=O)CCC(=O)Nc1ccccn1)c1ccc2c(c1)OCO2)NCc1ccco1	-12%	-0.5%	3	5%
CCn1c(SCC(=O)Nc2cc(C)on2)nnc1-c1ccncc1	-2%	1.0%	1	-13%
O=C(CN1C(=O)NC2(CCCC2)C1=O)NCCc1ccc(F)cc1	/	-0.7%	/	-2%
O=C1c2cccc3cccc(c23)C(=O)N1CCCc1n[nH]c(=S)n1-c1ccccc1	1%	-0.1%	-27	13%
Nc1ccc(C(=O)Nc2ccc3nc(-c4cccnc4)[nH]c3c2)cc1	-8%	2.6%	-29	-8%
Cn1c(N)c(C(=O)CSc2nnc(C3CC3)n2N)c(=O)n(C)c1=O	/	4.1%	/	-4%
Cn1c(=O)c2cc(S(=O)(=O)NCCC(=O)Nc3ccc(Cl)cc3)ccc2n(C)c1=O	1%	-1.6%	4	17%
Cc1ccc(Cn2c(-c3nonc3N)nc3ccccc32)cc1	0%	-2.2%	-17	-5%
CCOC(=O)C1=C(c2ccccc2)NC(SCC(N)=O)=C(C#N)C1c1cccnc1 (centres undefined)	-6%	1.9%	-1	6%
CC(OCC(O)CN(C)Cc1nc2ccccc2c(=O)[nH]1)c1ccc(Cl)cc1 (centres undefined)	8%	0.2%	2	16%
Cc1ccc(S(=O)(=O)N2CCCSCC2)cc1	-9%	-0.3%	5	9%
COC(=O)CSc1nnc(-c2ccc(S(=O)(=O)NCc3cccs3)cc2)o1	-1%	-0.4%	4	1%
Cc1cccn2c(=O)c(/C=C(\C#N)S(=O)(=O)c3ccccc3)c(N3CCN(C)CC3)nc12	-2%	?	3	?
CCSC1=NCCN1S(=O)(=O)c1ccc(NC(C)=O)cc1	0%	-0.1%	4	15%
O=C(NNC(=O)c1cccs1)c1ccncc1	-3%	3.0%	0	2%
OC[C@@H]1[C@@H](c2ccc(Cl)cc2)C(c2ccc(F)cc2)=NN1c1ccccc1	/	?	?	?
Cc1cc(S(=O)(=O)NCCc2ccccc2)ccc1-n1cnnn1	8%	0.3%	/	1%
Cc1cc(C(=O)NN=Cc2ccc(-c3ccc(F)cc3)o2)c(C)o1	/	4.4%	/	0%
CNC(=S)N/N=C/c1ccco1	-4%	0.2%	-2	-4%
CC(C)n1c(SC2CCOC2=O)nc2ccccc21 (centres undefined)	1%	2.3%	5	0%

Just GLA inh pH 4.5, Rango-impB inh and miR-21 FLuc, for 3 of the compounds above:
| SMILES | GLA inh pH 4.5 | Rango-impB inh | miR-21 FLuc |
| --- | --- | --- | --- |
| Cc1cc(S(=O)(=O)NCCc2ccccc2)ccc1-n1cnnn1 | / | 0.3% | 8% |
| CC(C)n1c(SC2CCOC2=O)nc2ccccc21 (centres undefined) | 5 | 2.3% | 1% |
| Cc1cc(C(=O)NN=Cc2ccc(-c3ccc(F)cc3)o2)c(C)o1 | / | 4.4% | / |
